Bioassay records as filed in PubChem.
Ecoli growth – E. coli growth inhibition, primary screen, OD600 | 330,000 compounds, 0.21% hits | OD600 absorbance (concentration not given with the values) | AID 1053175, 2014 | Escherichia coli growth, 23 h; hits give low values;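 active means OD600 absorbance below the run mean of sample wells minus 3.6 SD, in any replicate, cut at about 0.56 in these data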;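 further: stock transfer was 300 nL into about 60 µL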
FGF22 binding – binders of human FGF22 protein, primary screen, FGF22 synaptogenesis inhibitor project, biophysical, thermal shift, single point. Fibroblast growth factor 22 (Homo sapiens), Q9HCT0. recombinant FGF22 thermal shift, SYPRO orange fluorescence; percent of sucrose octasulfate shift, DMSO zero. calls only at 9.99 µM. 340,000 compounds, 1.5% hits;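 active means melting point raised past a set limit in the mean and every replicate; inconclusive means no clear call; three in four hits are not shown here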
Target sequence (Q9HCT0 whole entry, looked up): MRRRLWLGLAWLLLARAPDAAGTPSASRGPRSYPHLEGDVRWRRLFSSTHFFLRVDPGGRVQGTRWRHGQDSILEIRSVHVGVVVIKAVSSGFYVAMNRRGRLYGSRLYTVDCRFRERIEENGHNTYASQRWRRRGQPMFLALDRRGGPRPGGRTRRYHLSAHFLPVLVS
UCH37 DUB inh – inhibitors of human UCH37 deubiquitinase, primary screen, biochemical, Ub-AMC cleavage, fluorescence; 330,000 compounds, 0.33% hits; inhibition, % (test concentration not listed); Ubiquitin carboxyl-terminal hydrolase isozyme L5 (Homo sapiens), Q9Y5K5; purified proteasome/UCH37;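 active means mean of two replicates above 20%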;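 further: 0% = compound-free wells with enzyme and 100% = wells lacking proteasome; stock transfer was 100 nL into about 20 µL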
Target sequence (Q9Y5K5 whole entry, looked up): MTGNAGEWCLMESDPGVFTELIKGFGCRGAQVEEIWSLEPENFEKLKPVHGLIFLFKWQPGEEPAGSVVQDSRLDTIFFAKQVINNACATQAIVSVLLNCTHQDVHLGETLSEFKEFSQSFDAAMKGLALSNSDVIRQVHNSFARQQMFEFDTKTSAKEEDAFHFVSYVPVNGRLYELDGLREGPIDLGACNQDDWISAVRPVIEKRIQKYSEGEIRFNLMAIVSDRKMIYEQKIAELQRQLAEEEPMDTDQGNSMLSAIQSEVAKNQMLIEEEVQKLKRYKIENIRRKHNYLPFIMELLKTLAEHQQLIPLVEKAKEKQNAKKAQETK
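Material: Human UCH37 enzyme supplied as purified proteasome complex | Schedule: 30 min preincubation with enzyme, 25 min cleavage at room temperature | Detection: AMC fluorescence 355/460 nm | Measure: % inhibition of Ub-AMC cleavage fluorescence | Controls: Wells without proteasome as full block, compound-free enzyme plus substrate as uninhibited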
rRNA inh HTS – reduced GFP signal of wild-type E. coli, primary screen, bacterial rRNA inhibitor project, GFP/RFP fluorescence, OD600, single point. 350,000 compounds, 1.6% hits. E. coli WT GFP vs humanized-ribosome RFP mutants, 24 h; hits give low values; DMSO median 0, no signal -100. GFP signal change (wild-type ribosome), % (test concentration not listed);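 active means significant combined selectivity score with lowered wild-type GFP, culture density cut under 30%, mutant RFP and density less affected; inactive means any of these conditions unmet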; further: one replicate is shown; some compounds called inactive have numbers as strong as hits
T cruzi inh – inhibitors of intracellular T. cruzi growth, primary screen, luminescence, NIH3T3 host cells. inhibition, % (test concentration not listed). T. cruzi beta-gal in NIH3T3, 90 h. AID 1885, 2009. 300,000 compounds, 1.4% hits;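 active means mean inhibition across valid replicates above about 55%, limit read from the data; inconclusive means mean below that limit but half or more replicates reach it; inactive means mean below it, under half of replicates reach it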;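 further: signal also drops with host cell toxicity which is not excluded here; 0% = plate median of DMSO wells and 100% = zero luminescence signal; higher percent means less beta-gal luminescence so fewer parasites; stock transfer was 50 nL into about 50 µL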
MLL AF4-AF9 inh – inhibitors of AF4 peptide binding to AF9, primary screen, biochemical, AlphaScreen, biotin-AF4 peptide, FLAG-AF9, single point; Protein AF-9 (Homo sapiens), P42568; inhibition, % at 10 µM; 350,000 compounds, 0.47% hits; AID 651704, 2012;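 active means every replicate reaching a set inhibition limit, whatever the replicate mean, cut at about 25% in these data; inconclusive means mean inhibition reaches that limit but some replicates miss it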;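 further: 0% = plate neutral control median and 100% = total signal loss; the record names both 10 and 1 µM as test concentration; the first replicate is given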
Target sequence (P42568 whole entry, looked up): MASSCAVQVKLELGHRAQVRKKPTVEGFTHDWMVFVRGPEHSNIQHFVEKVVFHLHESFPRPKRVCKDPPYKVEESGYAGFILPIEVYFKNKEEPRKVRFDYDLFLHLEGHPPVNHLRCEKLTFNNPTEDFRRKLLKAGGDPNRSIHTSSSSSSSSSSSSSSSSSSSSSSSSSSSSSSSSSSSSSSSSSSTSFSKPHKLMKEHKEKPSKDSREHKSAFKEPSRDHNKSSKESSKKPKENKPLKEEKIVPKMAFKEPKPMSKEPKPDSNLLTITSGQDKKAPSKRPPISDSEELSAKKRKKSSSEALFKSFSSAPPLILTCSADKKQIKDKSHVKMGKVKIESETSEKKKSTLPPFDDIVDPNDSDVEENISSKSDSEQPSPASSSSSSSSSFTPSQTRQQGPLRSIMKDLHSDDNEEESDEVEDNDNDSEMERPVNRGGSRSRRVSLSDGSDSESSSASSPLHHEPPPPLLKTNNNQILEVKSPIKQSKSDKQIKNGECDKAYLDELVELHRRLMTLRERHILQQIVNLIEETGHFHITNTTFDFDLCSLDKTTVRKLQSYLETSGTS
Bfl-1 A1 inh – caspase 3/7 activation in MEF A1-2A-BIM cells, primary screen, A1 inhibitor project, cell-based, luminescence, HTS; Caspase-Glo 3/7 luminescence, 3 h; percent of clofoctol response, vehicle zero; caspase activation, % (concentration not given with the values); 330,000 compounds, 0.066% hits; AID 2462, 2010;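 active means over half of replicate activation scores above 10%, or exactly half above 10 with the replicate mean above 10; inconclusive means replicate mean below 10 yet half the replicates above 10; inactive means over half of replicates below 10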;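 further: wells of about 30 µL received 50 nL stock; many hits fall short of the cut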
Beta cell apopt – inhibitors of cytokine-induced beta cell apoptosis, primary screen, luminescence; INS-1E cytokine-induced death, ATP luminescence, 48 h; percent of positive-control rescue, neutral wells zero; protection from apoptosis, % (test concentration not listed); 300,000 compounds, 0.8% hits;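 active means all replicates at 75% or more, or half of them and the mean; inconclusive means half reach 75% but not the mean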;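 further: 0% = cytokine-treated negative control wells and 100% = positive control rescue; higher means more ATP so stronger rescue from cytokine killing; wells of about 40 µL received 100 nL stock; the first replicate is given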
rRNA inh HTS OD600 – second read-out of rRNA inh HTS, no call of its own (marks repeat the call); OD600 change, %; measured here: OD600 growth;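 optical density of the mix in the first replicate; 0 = DMSO median and -100 = no signal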
rRNA inh HTS RFP – second read-out of rRNA inh HTS, no call of its own (marks repeat the call); RFP signal change, %; measured here: RFP humanized mutant strains;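 first replicate; 0 = DMSO median and -100 = no signal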
* hit, by the source's call. A portion of the library. The share of hits here may be higher or lower than overall.

Screening O=C(CCn1cnnn1)NC1CCCN(Cc2ccccc2F)C1 (centres undefined) returned Ecoli growth 0.65, FGF22 binding inactive, UCH37 DUB inh -0.3, rRNA inh HTS 11, T cruzi inh -7, MLL AF4-AF9 inh -1.1, Bfl-1 A1 inh 1.9, Beta cell apopt -9, rRNA inh HTS OD600 6 and rRNA inh HTS RFP -0.2.
For Cc1ccc(CNC(=O)CSc2ncn[nH]2)cc1 the results were Ecoli growth 0.7, FGF22 binding inactive, UCH37 DUB inh -0.2, rRNA inh HTS 2, T cruzi inh -14, MLL AF4-AF9 inh -1.6, Bfl-1 A1 inh 0.0, rRNA inh HTS OD600 3 and rRNA inh HTS RFP -1.5.
For Cc1ccc(Nc2c([N+](=O)[O-])ccc3nonc23)cc1C the results were Ecoli growth 0.66, FGF22 binding inactive, UCH37 DUB inh 7.2, rRNA inh HTS -3, T cruzi inh 14, MLL AF4-AF9 inh 11, Bfl-1 A1 inh -0.2, Beta cell apopt 5, rRNA inh HTS OD600 8 and rRNA inh HTS RFP -0.7.
For COc1ccc(CCNC(=O)c2cc(Cl)nc3ccccc23)cc1 the results were Ecoli growth 0.72, FGF22 binding inactive, UCH37 DUB inh -3.9, rRNA inh HTS 14, T cruzi inh 7, MLL AF4-AF9 inh -1.5, Bfl-1 A1 inh 0.5, Beta cell apopt -5, rRNA inh HTS OD600 12 and rRNA inh HTS RFP -2.2.
`COc1ccc(Nc2nccc(OC)c2C#N)cc1` gave Ecoli growth 0.73, UCH37 DUB inh 1.9, T cruzi inh 4, Bfl-1 A1 inh 0.8 and Beta cell apopt 0.
For Cc1ccc(S(=O)(=O)N2CCN(C(=O)CSc3ccc(Cl)cc3)CC2)cc1 the results were Ecoli growth 0.64, FGF22 binding inactive, UCH37 DUB inh 4.6, rRNA inh HTS -7, T cruzi inh 20, MLL AF4-AF9 inh -0.2, Bfl-1 A1 inh -0.6, Beta cell apopt 0, rRNA inh HTS OD600 -25 and rRNA inh HTS RFP -4.0.
For O=C(CCc1nnc(-c2ccccc2)o1)NCC1CCN(C2CCCC2)CC1 the results were Ecoli growth 0.71, FGF22 binding inactive, UCH37 DUB inh 0.3, rRNA inh HTS 9, T cruzi inh 2, MLL AF4-AF9 inh -0.8, Bfl-1 A1 inh 0.4, Beta cell apopt -1, rRNA inh HTS OD600 -1 and rRNA inh HTS RFP 2.6.
CCN1CCN(CC(=O)Nc2nc3ccc(OC)cc3s2)CC1 was read as Ecoli growth 0.71, UCH37 DUB inh 2.4, T cruzi inh 0, Bfl-1 A1 inh -0.6 and Beta cell apopt -2.
For COc1ccc2cc(C(=O)C3CCCN(Cc4ccccn4)C3)ccc2c1 (centres undefined) the results were Ecoli growth 0.67, FGF22 binding inactive, UCH37 DUB inh 3.3, rRNA inh HTS -35, T cruzi inh 7, MLL AF4-AF9 inh 7.4, Bfl-1 A1 inh -0.4, Beta cell apopt 4, rRNA inh HTS OD600 -40 and rRNA inh HTS RFP -9.7.
`O=C(O)c1cccc(S(=O)(=O)Nc2cc(Cl)ccc2Cl)c1` gave Ecoli growth 0.72, FGF22 binding inactive, UCH37 DUB inh 1.5, rRNA inh HTS 2, T cruzi inh -3, MLL AF4-AF9 inh -2.2, Bfl-1 A1 inh -0.1, Beta cell apopt -4, rRNA inh HTS OD600 -6 and rRNA inh HTS RFP 0.7.
Screening O=C(CCCN1C(=O)c2ccccc2C1=O)NCCN1C(=O)S/C(=C\c2cccs2)C1=O returned Ecoli growth 0.67, FGF22 binding inactive, UCH37 DUB inh 5.1, rRNA inh HTS 5, T cruzi inh 8, MLL AF4-AF9 inh -0.4, Bfl-1 A1 inh inconclusive, Beta cell apopt -11, rRNA inh HTS OD600 1 and rRNA inh HTS RFP 1.7.
For COc1ccccc1NC(=O)COC(=O)/C=C/c1ccc(OC)c(OC)c1 the results were Ecoli growth 0.69, FGF22 binding inactive, UCH37 DUB inh -135, rRNA inh HTS -9, MLL AF4-AF9 inh 2.7, Bfl-1 A1 inh -1.0, Beta cell apopt -2, rRNA inh HTS OD600 -13 and rRNA inh HTS RFP 16.
For O=C(O)c1ccccc1C(=O)Nn1cnnc1 the results were Ecoli growth 0.68, FGF22 binding inactive, UCH37 DUB inh -0.9, rRNA inh HTS 14, T cruzi inh -10, MLL AF4-AF9 inh -1.1, Bfl-1 A1 inh 0.2, Beta cell apopt -6, rRNA inh HTS OD600 23 and rRNA inh HTS RFP 17.
Screening Cc1cccc(N2CCN(C3=NC(=O)/C(=C\c4cn[nH]c4-c4ccccc4)S3)CC2)c1 returned Ecoli growth 0.72, UCH37 DUB inh -4.8, T cruzi inh -2, Bfl-1 A1 inh 0.0 and Beta cell apopt 2.
Cc1ccc(N2CC(C(=O)Nc3ncc([N+](=O)[O-])s3)CC2=O)cc1 (centres undefined) was read as Ecoli growth 0.64, FGF22 binding inactive, UCH37 DUB inh 4.4, rRNA inh HTS -52, T cruzi inh 16, MLL AF4-AF9 inh -0.4, Bfl-1 A1 inh 0.3, Beta cell apopt 8, rRNA inh HTS OD600 -65 and rRNA inh HTS RFP -4.1.
Screening Cn1cnnc1SCC(=O)NN(c1ccccc1)c1ccccc1 returned Ecoli growth 0.69, FGF22 binding inactive, UCH37 DUB inh 2.5, rRNA inh HTS 12, T cruzi inh -8, MLL AF4-AF9 inh 1.8, Bfl-1 A1 inh 0.9, Beta cell apopt -1, rRNA inh HTS OD600 15 and rRNA inh HTS RFP 0.6.
For Cc1cc(NC(=O)CCCn2nc([N+](=O)[O-])c(Cl)c2C)no1 the results were Ecoli growth 0.7, FGF22 binding inactive, UCH37 DUB inh 2.1, rRNA inh HTS 6, T cruzi inh -10, MLL AF4-AF9 inh -26, Bfl-1 A1 inh 1.8, Beta cell apopt 2, rRNA inh HTS OD600 -4 and rRNA inh HTS RFP -3.0.
For O=C(O)c1cccc(Oc2cccc(Cl)n2)c1 the results were Ecoli growth 0.66, FGF22 binding inactive, UCH37 DUB inh 1.1, rRNA inh HTS 6, T cruzi inh 0, MLL AF4-AF9 inh -1.8, Bfl-1 A1 inh 0.3, Beta cell apopt -3, rRNA inh HTS OD600 6 and rRNA inh HTS RFP -1.6.
Cc1ccc(CN(C)C2CCN(C)CC2)cc1 was read as Ecoli growth 0.66, FGF22 binding inactive, UCH37 DUB inh 4.9, rRNA inh HTS 7, T cruzi inh 7, MLL AF4-AF9 inh -2.0, Bfl-1 A1 inh -1.0, Beta cell apopt -3, rRNA inh HTS OD600 -14 and rRNA inh HTS RFP -0.6.
Screening N/C(=N\c1nc(CSc2ccc(Cl)cc2)cc(=O)[nH]1)Nc1ccccc1C(F)(F)F returned Ecoli growth 0.67, FGF22 binding inactive, UCH37 DUB inh 3.5, rRNA inh HTS 14, T cruzi inh 3, MLL AF4-AF9 inh 1.8, Bfl-1 A1 inh -0.7, Beta cell apopt 12, rRNA inh HTS OD600 7 and rRNA inh HTS RFP 2.1.
For CCc1ccc(-c2csc3ncn(CC(=O)NCc4ccco4)c(=O)c23)cc1 the results were Ecoli growth 0.7, FGF22 binding inactive, UCH37 DUB inh -0.6, rRNA inh HTS -22, T cruzi inh -20, MLL AF4-AF9 inh -0.9, Bfl-1 A1 inh 0.5, Beta cell apopt 6, rRNA inh HTS OD600 -23 and rRNA inh HTS RFP -1.0.
Screening S=c1[nH]nc(COc2ccccc2)n1/N=C/c1ccc(Cl)cc1Cl returned FGF22 binding inactive, rRNA inh HTS 2, T cruzi inh -1, MLL AF4-AF9 inh -8.6, Bfl-1 A1 inh 0.3, Beta cell apopt -3, rRNA inh HTS OD600 -10 and rRNA inh HTS RFP 1.2.
For CCCOc1cccc(CN2CCCCC2c2cccnc2)c1 (centres undefined) the results were Ecoli growth 0.7, UCH37 DUB inh 1.7, T cruzi inh 55*, Bfl-1 A1 inh -0.4 and Beta cell apopt -2.
`Cc1cc(C)c(S(=O)(=O)N2CCN(C(=O)C3CCCO3)CC2)c(C)c1` (centres undefined) gave Ecoli growth 0.65, FGF22 binding inactive, UCH37 DUB inh 1.6, MLL AF4-AF9 inh -1.1, Bfl-1 A1 inh 0.1 and Beta cell apopt -2.
For CCc1ccccc1N(CC(=O)NC(C)C)C(=O)CCC(=O)Nc1nccs1 the results were Ecoli growth 0.68, FGF22 binding inactive, UCH37 DUB inh 2.0, rRNA inh HTS 7, T cruzi inh 2, MLL AF4-AF9 inh 5.9, Bfl-1 A1 inh 1.0, Beta cell apopt -9, rRNA inh HTS OD600 2 and rRNA inh HTS RFP -1.4.
Screening COc1ccc(C(=O)Oc2cc(C)[nH]c(=O)c2[N+](=O)[O-])c(OC)c1 returned Ecoli growth 0.66, FGF22 binding inactive, UCH37 DUB inh 7.1, rRNA inh HTS 12, T cruzi inh -11, MLL AF4-AF9 inh -1.8, Bfl-1 A1 inh 0.8, Beta cell apopt 7, rRNA inh HTS OD600 8 and rRNA inh HTS RFP -1.6.
`O=C(/C=C/c1cccs1)Nc1ccc(N2CCOCC2)c(S(=O)(=O)Nc2ccccc2Cl)c1` gave UCH37 DUB inh -0.8, T cruzi inh 38, Bfl-1 A1 inh -1.1 and Beta cell apopt 16.
Screening Clc1ncccc1-c1nnn(-c2ccccc2)n1 returned Ecoli growth 0.69, FGF22 binding inactive, UCH37 DUB inh -3.7, rRNA inh HTS -2, T cruzi inh 9, MLL AF4-AF9 inh -6.8, Bfl-1 A1 inh -12, Beta cell apopt 4, rRNA inh HTS OD600 3 and rRNA inh HTS RFP -5.1.
Screening CCC(=O)Nc1ccc2c(c1)nc1n2CCN(CCOC)C1 returned Ecoli growth 0.67, FGF22 binding inactive, UCH37 DUB inh -67, rRNA inh HTS 7, T cruzi inh 0, MLL AF4-AF9 inh -0.4, Bfl-1 A1 inh 0.2, Beta cell apopt 0, rRNA inh HTS OD600 -1 and rRNA inh HTS RFP 4.7.
`Cc1ccc(Cn2ccnc2SCC(=O)NC2CCCC2)cc1` gave Ecoli growth 0.68, FGF22 binding inactive, UCH37 DUB inh 4.1, rRNA inh HTS -8, T cruzi inh -3, MLL AF4-AF9 inh -0.1, Bfl-1 A1 inh 0.3, Beta cell apopt -8, rRNA inh HTS OD600 -7 and rRNA inh HTS RFP 2.2.
`C=CCN(Cc1ccc(OC)c(OC)c1)C(=O)c1cc2cc(F)ccc2[nH]1` gave Ecoli growth 0.66, FGF22 binding inactive, UCH37 DUB inh -1.1, rRNA inh HTS 1, T cruzi inh 13, MLL AF4-AF9 inh 0.4, Bfl-1 A1 inh -0.2, Beta cell apopt 0, rRNA inh HTS OD600 -3 and rRNA inh HTS RFP 0.7.
